# FEN1 inhibitor – qHTS Assay for the Inhibitors of Human Flap endonuclease 1 (FEN1). P39748. Recombinant FEN1 flap cleavage, fluorescence, 15 min. Potency, µM (titrated, usually from 114 µM), inactives show at the highest dose activity change, negative = inhibition, hits mostly inhibitors. actives 0.35% (n = 390,000); further: nearly all actives have a fitted effect of over 65% in size
# Target sequence (P39748 whole entry, looked up): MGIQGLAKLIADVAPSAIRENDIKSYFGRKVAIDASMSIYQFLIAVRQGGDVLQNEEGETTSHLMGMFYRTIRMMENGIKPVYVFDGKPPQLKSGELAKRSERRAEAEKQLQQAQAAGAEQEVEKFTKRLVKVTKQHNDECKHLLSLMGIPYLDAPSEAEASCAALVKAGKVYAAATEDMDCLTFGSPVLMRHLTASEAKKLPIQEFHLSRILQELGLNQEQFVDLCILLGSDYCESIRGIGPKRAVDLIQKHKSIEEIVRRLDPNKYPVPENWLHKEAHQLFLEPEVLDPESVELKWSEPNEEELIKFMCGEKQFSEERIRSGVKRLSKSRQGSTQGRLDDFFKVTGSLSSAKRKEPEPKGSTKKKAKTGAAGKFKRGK
#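 Read-out was taken twice, immediately and after 15 min, following addition of 50 nM substrate to 10 nM FEN1 that had sat with test compound for 15 min at room temperature. Curves came from a four-parameter Hill model.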
# TDP1 block – qHTS Assay for Inhibitors of Tyrosyl-DNA Phosphodiesterase (TDP1); AID 485290, 2010; recombinant TDP1, AlphaScreen DNA substrate cleavage; Potency, µM (series often up to 130 µM), for inactives: top-dose activity change, negative = inhibition, hits mostly inhibitors; Tyrosyl-DNA phosphodiesterase 1 (Homo sapiens), Q9NUW8; actives 0.28% (n = 350,000); further: nearly all actives have a fitted effect of over 40% in size
# Target sequence (Q9NUW8 whole entry, looked up): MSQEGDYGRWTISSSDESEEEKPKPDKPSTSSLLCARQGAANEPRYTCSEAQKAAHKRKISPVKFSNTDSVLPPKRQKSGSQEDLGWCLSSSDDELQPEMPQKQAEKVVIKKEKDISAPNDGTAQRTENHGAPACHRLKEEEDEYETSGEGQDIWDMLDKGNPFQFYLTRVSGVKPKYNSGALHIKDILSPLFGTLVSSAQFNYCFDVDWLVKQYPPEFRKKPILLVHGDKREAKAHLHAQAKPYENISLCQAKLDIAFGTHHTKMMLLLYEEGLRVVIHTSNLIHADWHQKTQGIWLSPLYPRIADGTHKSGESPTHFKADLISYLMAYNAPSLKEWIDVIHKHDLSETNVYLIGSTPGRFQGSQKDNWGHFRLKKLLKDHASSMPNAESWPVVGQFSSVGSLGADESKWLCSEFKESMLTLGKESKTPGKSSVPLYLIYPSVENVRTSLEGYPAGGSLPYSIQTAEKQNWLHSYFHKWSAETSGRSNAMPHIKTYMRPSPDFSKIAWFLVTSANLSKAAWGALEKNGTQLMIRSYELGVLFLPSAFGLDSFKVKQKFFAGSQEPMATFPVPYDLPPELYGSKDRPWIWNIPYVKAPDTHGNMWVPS
#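 Tdp1 1 nM final; 15 min RT w/ cpd; substrate 15 nM, 5 min; beads 10 ug/ml, 10 min; AlphaScreen read. Neg ctrl: no enzyme.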
# The depositor's hits bear a star; / = not tested or not shown; & = joins results of further samples; [ ] = dose if it differs, or a comment. The call rests on the fitted dose curve; in most records, active means well fitted inhibition curve with a large enough effect; inconclusive means small, poorly fitted or top-dose-only effect; inactive means no such curve, though single readings can be large or run the other way. On the % scale 0 is the no-effect control and ±100 the full control effect; potency means the concentration at half of the fitted maximal effect.
nr	mol	FEN1 inhibitor	TDP1 block
1	O=C(NNc1ccccc1[N+](=O)[O-])Nc1ccc(Cl)c(Cl)c1	-8%	9%
2	O=C(NNC(=O)c1ccc(-n2cncn2)c([N+](=O)[O-])c1)c1cccc(Cl)c1	2%	0%
3	COc1ccc(S(=O)(=O)N2CCCC(C(=O)NCc3ccco3)C2)cc1Cl (stereo not drawn)	-20%	9%
4	O=C(Cn1nnc(-c2cccc(C(F)(F)F)c2)n1)N1CCOCC1	-11%	2%
5	CC(C)=CCC/C(C)=C/CC(C)(C)CNCCN1CCNCC1	/	0%
6	O=C(Cc1ccccc1)NCC(=O)N/N=C/c1ccc(C(=O)O)cc1	3%	1%
7	C/C(=N\NC(=O)c1cc(C)nc2ccccc12)c1cccc(Cl)c1	-5%	2%
8	CC1CCCCC1NC(=O)C1CC=CCC1C(=O)O (stereo not drawn)	1%	2%
9	COc1cc2c(cc1OC)C(c1ccccc1C)CC(=O)N2 (stereo not drawn)	4%	6%
10	COc1ccc(CCNC(=S)NCCc2c[nH]c3ccccc23)cc1	-7%	8%
11	CCC(=O)Nc1nn(CC(C)C)c2nc3ccc(C)cc3cc12	1%	/
12	CN(C)S(=O)(=O)c1ccc(C(=O)Nc2nc3ccccc3[nH]2)cc1	5%	3%

# Compounds shown so far that contain a halogen (five):
nr	mol	FEN1 inhibitor	TDP1 block
1	O=C(NNc1ccccc1[N+](=O)[O-])Nc1ccc(Cl)c(Cl)c1	-8%	9%
2	O=C(NNC(=O)c1ccc(-n2cncn2)c([N+](=O)[O-])c1)c1cccc(Cl)c1	2%	0%
3	COc1ccc(S(=O)(=O)N2CCCC(C(=O)NCc3ccco3)C2)cc1Cl (stereo not drawn)	-20%	9%
4	O=C(Cn1nnc(-c2cccc(C(F)(F)F)c2)n1)N1CCOCC1	-11%	2%
7	C/C(=N\NC(=O)c1cc(C)nc2ccccc12)c1cccc(Cl)c1	-5%	2%

# Continued.
nr	mol	FEN1 inhibitor	TDP1 block
13	O=[N+]([O-])c1cc(C(F)(F)F)ccc1NCCc1ccncc1	9%	/
14	Cc1ccc(SCC(=O)Nc2c(Br)cnn2C)cc1	12%	6%
15	CCCC1(C(=O)OCC)NC(c2ccco2)C2C(=O)N(C)C(=O)C21 (stereo not drawn)	0%	-3%
16	CCOC(=O)CNC(=O)CSc1nc2cccnc2n1Cc1ccccc1	1%	4%
17	O=C(NCCO)c1ccccc1O	-1%	2%
18	CCc1nc(NC(=O)c2sc(C)nc2C)sc1C(=O)OC	-3%	/
19	O=C(NNC(=O)c1ccc(Oc2ccc(C3SCCS3)cc2)o1)c1ccc(Cl)cc1	14%	/
20	COC(=O)CCC(=O)N1CCc2cc(S(=O)(=O)N3CCN(c4ccccc4Cl)CC3)ccc21	-7%	5%
21	O=C(c1cccnc1)N1CCN(c2ccccc2Cl)CC1	/	3%
22	CCOC(=O)c1cnc2c([N+](=O)[O-])cnn2c1C	-4%	8%
23	CCOC(=O)c1ccc(NCc2cccnc2)cc1	9%	/
24	Cn1c(=O)cc(SCC(=O)Nc2ccccn2)c2ccccc21	-5%	3%
25	COc1ccc(CN(C)CC(=O)Nc2cccc(S(N)(=O)=O)c2)c(OC)c1OC	17%	2%
26	CC(=O)NC1C(=O)N=C(SCC(=O)NC(C)c2ccccc2)NC1=O (stereo not drawn)	0%	2%
27	O=c1c(-c2nc3ccccc3o2)c2oc3ccccc3n2c2ccccc12	/	3%
28	CCOc1ccc(CCNC(=O)Cc2ccc(NC(=O)C3=C(C)OCCS3)cc2)cc1	-10%	4%
29	Cc1ccc(S(=O)(=O)NC(=O)CSc2nc3ccccc3s2)cc1	2%	-1%
30	OCCC1CN(Cc2ccccc2-c2ccco2)CCN1Cc1ccccc1 (stereo not drawn)	-1%	-5%
31	COc1cc(OC)cc(C(=O)N2CCN(S(C)(=O)=O)CC2)c1	-1%	0%
32	Cc1ccc(-c2nnc(-c3ccc(Br)cc3)o2)o1	-7%	-3%
33	O=C(CCc1ccccc1)NCc1ccccc1	0%	5%
34	COc1ccc(-n2nc3c(N)n[nH]c3cc2=O)cc1	3%	10%
35	Cc1cccc(OCCOCCN2CCNCC2)c1C	-7%	-5%
36	COC(=O)c1ccc(C2C(C(C)=O)=C(C)Nc3ncnn32)cc1 (stereo not drawn)	19%	2%
37	Cc1ccc(S(=O)(=O)N2CCN(C)CC2)c(C)c1	12%	0%
38	Cc1cc(C(=O)NCCN2C(=O)S/C(=C\c3cccs3)C2=O)ccc1[N+](=O)[O-]	22%	1%
39	O=S(=O)(c1ccsc1)N1CC=C(c2ccccc2)CC1	-3%	-3%
40	COc1ccccc1N1CCN(C(=O)c2cc3n(n2)C(C(F)(F)F)CC(c2ccco2)N3)CC1 (stereo not drawn)	-11%	-2%
41	Cc1cc(NC(=O)CN2C(=O)NC(CCc3ccccc3)C2=O)no1 (stereo not drawn)	3%	1%
42	Cc1ccc(S(=O)(=O)N(CC(O)CN2CCCCC2)c2cccc([N+](=O)[O-])c2)cc1 (stereo not drawn)	-1%	-11%
43	CCOC(=O)N1CCN(c2nc3ccccn3c(=O)c2C=O)CC1	-11%	/
44	COCCCNC(=O)CS(=O)(=O)Cc1nc(-c2ccccc2C)oc1C	18%	-2%
45	CC(=O)C1=C(C)NC(SCC(N)=O)=C(C#N)C1c1ccco1 (stereo not drawn)	-11%	6%
46	CCc1ccc(-c2csc(NC(=O)C3CCCO3)c2C(=O)OC(C)C)cc1 (stereo not drawn)	-16%	2%
47	CN(C)CCNc1nc2sc3c(c2c(=O)n1-c1ccccc1)CCCCC3	1%	/
48	Cc1cc(C)n(-c2nc(NC(C)C)nc(NC(C)C)n2)n1	-12%&14%	3%&2%
49	Cc1ccc(C(=O)NNC(=O)CSc2nnc(C3CC3)n2C)cc1	41%[activator]	11%
50	O=C(CSCc1ccccc1)Nc1ccc2c(c1)OCO2	-1%	5%
51	O=C(CN1CCCN(Cc2ccc(F)cc2Cl)C1=O)NC1CCCCCC1	-13%	2%
52	CN(C)S(=O)(=O)c1ccc(NC(=O)CSc2nnnn2C)cc1	-14%	3%
53	COc1ccccc1-c1nnc(SCC(=O)NCc2ccco2)n1N	-1%	-5%
54	O=S(=O)(Nc1nc2c(s1)CCCC2)c1ccc(Br)cc1	2%	-3%
55	CCN1CCN(C(c2cccc(OC)c2)c2sc3nc(C)nn3c2O)CC1 (stereo not drawn)	-1%	0%
56	COC(=O)Cc1c(O)ccn(Cc2ccc(Cl)c(Cl)c2)c1=O	-5%	1%
57	O=[N+]([O-])c1ccc(CS(=O)(=O)N2CCN(c3ccccc3)CC2)cc1	0%	4%[0.0935 µM]
58	Cc1nc(N2CCN(c3ccccn3)CC2)c2c(C)c(C(=O)N3CCN(c4ccccc4F)CC3)sc2n1	-21%	/
59	CC(C)C[C@H](NC(=O)[C@@H](Cc1ccccc1)n1c(=O)[nH]c2ccccc2c1=O)C(=O)N[C@@H](Cc1ccccc1)C(=O)O	5%	/
60	O=C1N(C2CCCC2)C[C@@H]2C[C@@H](c3cn[nH]c3-c3ccc(Cl)cc3)N3CCC[C@@]123	4%	9%
61	CC(C)c1ccc(/C=C2\CC/C(=C\C=N\N(C)C)C2=O)cc1	8%	4%
62	CC(C)(C)C(=O)Nc1ccc(C(=O)Nc2cccnc2)cc1	-4%	3%
63	CNc1csc(C)c(C)c1=O	9%	6%
64	O=C(Nc1ccc(Cl)c(S(=O)(=O)N2CCCC2)c1)c1nn(CCO)c(=O)c2ccccc12	0%	-2%
65	Cc1ccc(C)c(NC(=O)CN(C)C(=O)C2CCN(S(=O)(=O)c3ccc4c(c3)OCCO4)CC2)c1	-3%	/
66	CC(=O)n1nc(-c2cccnc2)nc1N	2%	3%
67	Cc1cc(C)cc(NC(=O)C2C3C=CC4(O3)C2C(=O)N(CCCN(C)C)C4C(=O)NC2CCCC(C)C2C)c1 (stereo not drawn)	0%	7%
68	O=C(NNC(=O)c1cccc2ccccc12)c1ccco1	-6%	5%
69	O=C1CSCC(=O)N1c1ccccc1	3%	5%
70	COc1ccccc1S(=O)(=O)Cc1ccc(C(=O)NCC(OC)OC)o1	-6%	/
71	Cc1ccc(NC(=O)c2ccccc2-c2cc(C)no2)cc1	0%	5%
72	Cc1nc2nc(CNC(=O)OC(C)(C)C)nn2c(C)c1CCC(=O)Nc1ccc2c(c1)OCO2	-19%	5%

# Later entries:
nr	mol	FEN1 inhibitor	TDP1 block
73	COc1cc(CN2CCNC(=O)C2CC(=O)N(C)CCN2CCOCC2)cc(OC)c1 (stereo not drawn)	24%	/
74	N#C/C(=C/Nc1ccccc1)c1ccsc1	-1%	8%
75	NC(=O)C1CCN(CC(O)CSc2ccc(F)cc2)CC1 (stereo not drawn)	6%	/
76	CCC1(COC(=O)Nc2cccc(Cl)c2)COC1	10%	3%
77	CN(CC(=O)Nc1ccccc1Cl)C(=O)COC(=O)CCN1C(=O)C2CC=CCC2C1=O (stereo not drawn)	0%	0%
78	COC(=O)c1c(NC(=O)CSc2nnc(C)c(=O)[nH]2)sc(C)c1C	-10%	-3%
79	O=S(=O)(NCC(Nc1ccccc1)c1ccccc1)c1ccc(Cl)cc1 (stereo not drawn)	-17%	3%
80	COc1ccc(C(=O)NNC2CC(=O)N(Cc3ccc(Cl)cc3)C2=O)cc1OC (stereo not drawn)	-2%	2%
81	CN(/N=C/c1cc(Cl)cc(Cl)c1O)C(=S)NC(C)(C)C	13%	0%
82	O=C(N/N=C/c1ccccc1)c1cc[n+]([O-])cc1	1%	1%
83	C=CCn1c(C)cc(-c2csc(NC(=O)C3=COCCO3)n2)c1C	1%	1%
84	CC(=O)N1CCC(N(CCCOC(C)C)S(=O)(=O)c2ccc([N+](=O)[O-])cc2)CC1	4%	/
85	CC(C)[C@H](NC(=O)c1ccccc1F)C(=O)NCc1ccc(S(N)(=O)=O)cc1	2%	2%
86	CCOc1ccccc1NC(=O)c1cc(S(=O)(=O)N2CCOCC2)ccc1C	-2%	1%
87	CCOC(=O)c1cncc(O)c1	16%	1%
88	CC(NC(=O)C1CCCN(S(=O)(=O)c2ccc(-n3cnnn3)cc2)C1)c1ccc(F)cc1 (stereo not drawn)	-4%	/
89	Cc1ccc(C(=O)N/N=C2\CC3CC=CC23)c(C)c1 (stereo not drawn)	18%	2%
90	Cc1ccc(C)n1-c1ccc(C(=O)NCc2ccncc2)cc1	-5%	5%
91	CN(CC(=O)NCc1ccc2c(c1)OCO2)S(=O)(=O)c1ccc(F)cc1	-3%	/
92	Cc1cc(N2CCCC2)ccc1/C=C1/C(=O)N(C)C(=S)N1C	18%	1%
93	O=C(COc1nsnc1N1CCOCC1)N/N=C/c1ccccc1O	0%	3%
94	CCOC(=O)CNC(=O)CSc1nc(N)cc(N)n1	-5%	-1%
95	O=C(c1cccc(Br)c1)N1CCN(C(=O)N2CCOCC2)CC1	2%	-4%[56.1 µM]
96	Cc1ccccc1CN1CCN(C(=O)c2cccc(F)c2)CC1	11%	-11%
97	O=C(O)CCn1c(CO)nc2ccccc21	3%	5%
98	CN(C)Cc1c(C(=O)N/N=C/c2cccc(OCc3c(F)cccc3Cl)c2)nnn1-c1nonc1N	8%	4%
99	CCOC(=O)C1(Cc2cccc(OC)c2)CCN(Cc2ccc(OC)c(O)c2)CC1	-8%	4%
100	NS(=O)(=O)c1ccc(CNC(=O)c2csc3c2CCCC3)cc1	-1%	2%
101	Cn1nc(C(=O)NCCOc2ccccc2)c2ccccc2c1=O	-9%	0%
102	CC(=O)c1ccc(NC(=O)C[n+]2ccc(N(C)C)cc2)cc1	7%	6%
103	Cc1ccc(-n2c(SCC(=O)Nc3cc(C)on3)nc3c(c2=O)SC(C)C3)cc1 (stereo not drawn)	8%	3%
104	CCOC(=O)c1cc(NC(=O)OC)c(C)nc1C	-12%	5%
105	O=C1c2ccccc2C(=O)N1CC(=O)N1c2ccccc2Sc2ccc(C(F)(F)F)cc21	-5%	-3%
106	CCOc1ccc(C2C(C#N)=C(N)N(N(C)C)C3=C2C(=O)CC(C)(C)C3)cc1 (stereo not drawn)	-5%	/
107	COC(C[C@H]1O[C@H]1[C@@H](O)[C@H](C)OCc1ccccc1)OC	-4%	5%
108	CN(C(=O)COC(=O)/C=C/c1ccc(F)cc1)c1c(N)n(Cc2ccccc2)c(=O)[nH]c1=O	1%	/
109	Cn1nnnc1NCc1c(F)cccc1Cl	9%	9%
110	O=C(Nc1ccc2ccccc2c1)NC1CCS(=O)(=O)C1 (stereo not drawn)	17%	-1%
111	Cc1cccc(N(CC(=O)NCC2CCCO2)C(=O)CCC(=O)Nc2cc(C)on2)c1 (stereo not drawn)	-10%	5%
112	Cc1cc(C)c(OCCn2ccnc2)c(C)c1	-1%	/
113	CC(Sc1nnc(-c2ccccc2Br)o1)C(=O)N1CCOCC1 (stereo not drawn)	-10%	3%[56.1 µM]
114	CN(N)c1nc(-c2ccccc2)cc(-c2ccccc2)n1	-11%	/
115	CCN1C(=O)CSc2ccc(C(=O)NCCCN3CCOCC3)cc21	0%	6%
116	COC(=O)Cc1cc(=O)[nH]c(/N=C(\N)Nc2ccccc2C)n1	26%	5%[56.1 µM]
117	COc1cccc(CN2CCNC(=O)C2CC(=O)NCCn2cccn2)c1OC (stereo not drawn)	3%	5%

# Bioassay records as filed in PubChem BioAssay.

# A portion of the library, and most or all hits are left out here.
